High-throughput results as filed in PubChem.
MLL AF4-AF9 inh – inhibitors of human MLL-AF4/AF9 interaction; P42568; AlphaScreen, biotin-AF4 peptide binding to FLAG-AF9; inhibition, % at 10 µM; actives 0.47% (n = 350,000); AID 651704;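 active means every replicate reaching a set inhibition limit, whatever the replicate mean, cut at about 25% in these data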;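 further: 0% = plate neutral control median and 100% = total signal loss; the record names both 10 and 1 µM as test concentration; the first replicate is given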
Target sequence (P42568 whole entry, looked up): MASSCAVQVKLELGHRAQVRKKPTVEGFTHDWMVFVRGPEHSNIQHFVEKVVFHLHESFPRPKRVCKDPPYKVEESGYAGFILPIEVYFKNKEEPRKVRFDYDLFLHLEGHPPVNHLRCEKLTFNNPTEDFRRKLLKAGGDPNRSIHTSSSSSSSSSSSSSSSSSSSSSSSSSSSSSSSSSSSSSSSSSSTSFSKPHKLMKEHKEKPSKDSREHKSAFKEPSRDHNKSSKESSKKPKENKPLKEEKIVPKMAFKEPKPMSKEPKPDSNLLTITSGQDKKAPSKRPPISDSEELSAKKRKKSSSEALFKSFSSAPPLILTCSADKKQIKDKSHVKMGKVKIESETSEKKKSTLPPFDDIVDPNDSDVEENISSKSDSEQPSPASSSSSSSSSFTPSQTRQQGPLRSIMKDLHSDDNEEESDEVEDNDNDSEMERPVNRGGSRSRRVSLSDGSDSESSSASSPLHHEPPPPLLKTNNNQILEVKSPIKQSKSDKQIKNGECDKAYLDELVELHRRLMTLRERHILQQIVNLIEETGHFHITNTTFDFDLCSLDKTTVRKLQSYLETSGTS
ALR inh – human ALR oxidase inhibition via reduced H2O2. P55789. purified ALR, DTT oxidation, H2O2 HRP-luminol luminescence. inhibition, % (test concentration not listed). actives 3.8% (n = 290,000);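 active means mean and each replicate at 75% or more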;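 further: stock transfer was 7.5 nL into about 7.5 µL; 0% = neutral wells and 100% = wells with inactivated enzyme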
Target sequence (P55789 whole entry, looked up): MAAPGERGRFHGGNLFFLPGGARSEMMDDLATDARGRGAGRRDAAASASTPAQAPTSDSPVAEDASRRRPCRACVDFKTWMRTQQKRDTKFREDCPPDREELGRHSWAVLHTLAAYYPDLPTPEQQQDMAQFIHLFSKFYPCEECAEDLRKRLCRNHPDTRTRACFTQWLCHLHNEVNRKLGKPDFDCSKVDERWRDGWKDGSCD
FGF22 binding – shifts melting point of recombinant human FGF22 | Q9HCT0 | recombinant FGF22 thermal shift, SYPRO orange fluorescence; percent of sucrose octasulfate shift, DMSO zero | calls only at 9.99 µM | actives 1.5% (n = 340,000) | AID 651658;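 active means melting point raised past a set limit in the mean and every replicate; three in four hits are not shown here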
Target sequence (Q9HCT0 whole entry, looked up): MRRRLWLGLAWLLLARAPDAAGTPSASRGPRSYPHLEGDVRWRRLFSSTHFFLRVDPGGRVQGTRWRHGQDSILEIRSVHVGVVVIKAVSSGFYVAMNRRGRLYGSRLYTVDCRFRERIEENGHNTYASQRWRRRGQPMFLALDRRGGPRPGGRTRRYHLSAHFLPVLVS
HNF4A DNA FP – change in binding of human HNF4 alpha to DNA | HNF4a-FITC DNA binding, fluorescence polarization, 1 h | activity change, % at 10 µM | actives 0.3% (n = 360,000); in the data active means activity change above about 30%, passing the limit was not always enough;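 further: controls were the assay level and a saturating level of protein; the project sought stronger binding though the title names inhibitors; some compounds called inactive have numbers as strong as hits; positive values seem to mean higher polarization but the record does not say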
rRNA inh HTS – inhibits bacterial ribosomal RNA function over humanized ribosomes | actives 1.6% (n = 350,000) | E. coli WT GFP vs humanized-ribosome RFP mutants, fluorescence, 24 h; stronger effect = lower value; DMSO median 0, no signal -100 | AID 720706 | GFP signal change (wild-type ribosome), % (concentration not given with the values);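 active means significant combined selectivity score with lowered wild-type GFP, culture density cut under 30%, mutant RFP and density less affected; inactive means any of these conditions unmet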; further: one replicate is shown; some compounds called inactive have numbers as strong as hits
Ecoli growth – blocks Escherichia coli growth. OD600, 23 h; stronger effect = lower value. OD600 absorbance (concentration not given with the values). actives 0.21% (n = 330,000);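 active means OD600 absorbance below the run mean of sample wells minus 3.6 SD, in any replicate, cut at about 0.56 in these data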;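 further: stock transfer was 300 nL into about 60 µL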
Vif A3G – inhibitors of Vif binding to APOBEC3G peptide, primary screen, biochemical, TR-FRET, GST-Vif 1-94, biotin-A3G peptide, dose response retest (AID 1117319) | TR-FRET GST-Vif / biotin-A3G peptide binding; higher % means a stronger effect; test concentration not given here; strong numbers were not always called active | inhibition, %, or IC50 in µM where a hit was titrated | actives 0.57% (n = 260,000);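 active means above the screen mean plus three standard deviations and confirmed in dose response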;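 further: Vif residues 1-94 fused to GST binding biotinylated APOBEC3G peptide 110-148; 0% = full assay without inhibitor and 100% = GST in place of GST-Vif; retest series ran down from 100 µM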
rRNA inh HTS OD600 – further read-out of rRNA inh HTS, marked with its call; OD600 change, %; measured here: OD600 growth;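 optical density of the mix in the first replicate; 0 = DMSO median and -100 = no signal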
rRNA inh HTS RFP – recorded beside rRNA inh HTS, whose call it bears; RFP signal change, %; measured here: RFP humanized mutant strains;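 first replicate; 0 = DMSO median and -100 = no signal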
Active calls of the source: *; i = inactive; · = not tested or not shown; & = joins results of further samples. A portion of the library (hit frequency here may not be typical).

Compound	MLL AF4-AF9 inh	ALR inh	FGF22 binding	HNF4A DNA FP	rRNA inh HTS	rRNA inh HTS OD600	rRNA inh HTS RFP	Ecoli growth	Vif A3G
CCCn1nnc(NC(=O)c2cccc(OCc3ccccc3)c2)n1	·	-17.1	·	-2.6	·	·	·	0.665	-0.1%
O=C(O)C1CCCCC1C(=O)Nc1cccc2ccccc12 (configuration not stated)	·	-7.5	·	0.2	·	·	·	0.698	9.2%
COc1ccc(-c2nc3n(c(=O)c2C#N)CCS3)c(OC)c1	-2.9	-5.5	i	1.6	1.6	7.6	0.7	0.676	-10.4%
CCOC(=O)C1CCCN(C(=O)C2CCN(S(=O)(=O)c3ccc(Cl)c(C(F)(F)F)c3)CC2)C1 (configuration not stated)	-3.7	·	i	0.6	-13.1	-27.0	-2.8	0.702	·
O=C(C[C@@H]1C[C@@H]2c3cc(NC(=O)c4cccnc4)ccc3O[C@@H]2[C@H](CO)O1)NCC1CC1	0.6	·	i	·	-1.8	1.1	-4.0	·	·
CCNC(=O)C1(C)CCN(C(=O)c2ccc(OC)cc2)C1 (configuration not stated)	1.3	·	i	-2.3	17.3	16.1	-1.9	·	·
COc1ccc(C=CC(=O)c2ccc(OCc3ccccc3)c(OC)c2)cc1OC	-0.6	·	i	1.2	8.8	11.8	11.2	·	16.2%
CCNC(=O)[C@@H]1[C@@H](CO)[C@@H]2Cn3c(ccc(-c4ccc(OC)cc4)c3=O)[C@H]1N2CC1CC1	-0.4	·	i	·	0.3	7.3	1.9	·	·
CC(C)c1ccc(NC(=O)COC(=O)c2nn(C)c(=O)c3ccccc23)cc1	-1.5	-18.5	i	1.1	1.3	2.3	-3.8	0.694	·
CCS(=O)(=O)NCC(c1ccco1)N1CCN(c2ccccc2)CC1 (configuration not stated)	·	93.0*	·	1.2	·	·	·	0.678	·
CCOC(=O)C1=NN(c2ccccc2)C2=NC(C)=C(C(=O)OC)C(c3ccc(C)cc3)N12 (configuration not stated)	·	-5.5	·	1.2	·	·	·	0.768	-2.5%
COc1ccc2c(-c3ccc(OCCN4CCOCC4)cc3)c(-c3ccccc3OC)sc2c1	·	·	·	3.9	·	·	·	0.706	-2.6%
Cc1cccc(N2CCN(C(=O)c3ccc4ccccc4c3)CC2C)c1 (configuration not stated)	2.4	12.2	i	1.8	-20.0	-57.0	6.4	0.704	-8.8%
Cc1ccc(C)c(N(CC(=O)NC2CCCCC2)C(=O)c2csnn2)c1	0.8	-1.5	i	-6.0	·	·	·	0.723	·
Cn1c2ccccc2c(=O)c2cc(C#Cc3ccccn3)ccc21	-0.3	3.3	i	-1.6	5.5	-3.4	15.0	0.724	·
COCC(=O)Nc1ccc2c(c1)[C@H]1C[C@@H](CC(=O)NC3CCCCC3)O[C@H](CO)[C@H]1O2	1.3	·	i	·	1.9	1.8	-0.4	·	·
CC(C)c1onc(C(=O)N2CCCCC2C)c1[N+](=O)[O-] (configuration not stated)	·	2.6	·	-2.0	·	·	·	0.682	3.6%
CS(=O)(=O)N1CCN(C(=O)c2cc(-c3ccncc3)nc3ccc(Cl)cc23)CC1	·	-3.6	·	-1.2	·	·	·	0.717	8.2%
CC(C)CN(C(=O)CN1CCN(S(=O)(=O)c2ccccc2)CC1)c1c(N)n(CC(C)C)c(=O)[nH]c1=O	-2.0	·	i	3.1	3.7	3.7	3.3	0.691	79.7%
COc1ccc(S(=O)(=O)N[C@@H]2CC[C@H](CCNC(=O)c3ccccc3F)O[C@@H]2CO)cc1	0.2	·	i	·	-1.4	-8.8	-3.1	·	·
NC(=O)c1ccccc1Br	·	-0.7	i	2.7	6.8	13.2	-1.5	0.684	-11.7%
O=C(Nc1cc(S(=O)(=O)Nc2ccc(Cl)cc2)ccc1N1CCCCC1)c1ccc(F)cc1Cl	-8.6	-17.3	i	3.2	1.0	10.2	-9.4	0.713	-9.9%
CCCn1nnnc1NC(=O)c1cc(Br)ccc1OC	-3.7	-8.0	i	3.4	10.9	5.0	1.4	0.696	-6.7%
CC(=O)C(Cc1ccccc1)NC(=O)CN1CCc2ccccc2C1 (configuration not stated)	4.8	1.4	i	0.2	-4.3	-5.5	1.5	0.664	-5.4%
CC(C)c1nc(SCC(=O)N2CCCc3ccccc32)c2c(=O)n(C)c(=O)n(C)c2n1	0.2	-8.4	i	-2.2	3.4	1.2	-0.1	0.662	0.4%
CC(C)COC(=O)N(C)C[C@@H]1OCc2cn(nn2)CCCC(=O)N([C@@H](C)CO)C[C@H]1C	-3.2&-0.2&5.7	·	i	1.0	2.9&1.3	8.3&1.1	-3.1&-0.8	·	4.5%
CC(/C=N/NC(=O)c1ccc(Cn2cc([N+](=O)[O-])cn2)o1)=C\c1ccccc1	2.8	-2.1	i	-4.0	-7.8	-6.4	0.6	·	-3.6%
Cc1ccc(S(=O)(=O)Nc2ccc3c(c2)C(=O)N([C@@H](C)CO)C[C@@H](C)[C@@H](CN(C)Cc2ccc4c(c2)OCO4)OCCCC[C@@H](C)O3)cc1	11.9	·	i	·	2.1	-19.7	8.3	·	·
CC=Cc1ccc2n(c1=O)C[C@H]1[C@H](CO)[C@@H](C(=O)NCCC)[C@@H]2N1Cc1ccccc1 (mixture of isomers)	-3.5	·	i	·	2.4	-1.1	0.5	·	·
C[C@H]1CN([C@@H](C)CO)S(=O)(=O)c2ccc(C3=CCCCC3)cc2O[C@@H]1CN(C)C(=O)Cc1ccncc1	14.0	·	i	·	1.0	2.3	0.4	·	·

More results:
Compound	MLL AF4-AF9 inh	ALR inh	FGF22 binding	HNF4A DNA FP	rRNA inh HTS	rRNA inh HTS OD600	rRNA inh HTS RFP	Ecoli growth	Vif A3G
Cn1cccc1/C=N/NC(=O)Cc1cccs1	5.0	2.0	i	2.3	·	·	·	·	2.6%
CCC(=O)N1C[C@H](C)[C@@H](OC)CN(C)C(=O)c2cc(NC(=O)C3CCOCC3)ccc2OC[C@@H]1C	3.0	·	i	·	1.3	7.0	0.2	·	·
CC(C)NC(=O)Nc1ccc2c(c1)C(=O)N([C@H](C)CO)C[C@@H](C)[C@H](CN(C)S(C)(=O)=O)OCCCC[C@H](C)O2	-12.5	·	i	·	4.9	10.7	-0.6	·	·
O=C(Nc1ccc(-c2n[nH]c(=S)o2)cc1)c1ccccc1Br	-9.6	86.3*	·	3.1	-18.1	-17.1	-3.6	0.686	·
CCOc1ccccc1NC(=O)Nn1cnnc1	-9.1	-2.9	i	1.8	13.8	15.0	3.0	0.703	9.1%
CNC(=O)c1ccccc1-c1ccccc1	·	-8.4	·	-2.6	·	·	·	0.725	-3.8%
O=C(NCc1ccco1)C1CCN(S(=O)(=O)Cc2ccccc2)CC1	6.7	-4.6	i	-1.4	7.4	8.2	-4.2	0.694	-5.8%
COc1ccc2sc(-c3ccccc3OC)c(C#CC(C)(C)O)c2c1	3.8	-6.1	i	1.0	-31.5	-50.1	20.9	0.691	·
COc1ccc([C@@H]2[C@@H]3C(=O)N(C(C)(C)C)C(=O)[C@@H]3[C@]3(Cc4ccc(Cl)cc4)C(=O)N(c4ccc(OC)cc4)C(=O)N23)cc1	4.0	-17.0	i	-3.8	1.6	4.0	-0.8	·	·
O=C(NCc1ccncc1)c1ccc(Cl)c(S(=O)(=O)N2CCOCC2)c1	·	·	·	1.9	·	·	·	0.723	4.0%
Cc1cc(C)n(-c2nnc(C)n2/N=C/c2ccccc2OCc2ccccc2Cl)n1	·	-22.1	·	2.6	·	·	·	·	-1.4%
Cc1ccc(CNC(=O)C(C)OC(=O)c2cccs2)cc1 (configuration not stated)	·	-22.1	·	-0.7	·	·	·	0.727	-1.6%
CN(C)C(=O)OCC1COc2ccccc2O1 (configuration not stated)	-0.1	-5.3	i	1.5	5.8	12.1	1.1	0.641	·
COc1ccc(NC(=O)Nc2cccc3c2O[C@H](CN(C)C(=O)Nc2ccc(OC)cc2)[C@H](C)CN([C@H](C)CO)C3=O)cc1	3.8	·	i	·	-0.5	-4.3	-0.1	·	·
CCOc1ncccc1C(=O)NNC(=O)c1cccc(S(=O)(=O)N2CCOCC2)c1	-1.8	·	i	1.0	-0.1	3.2	2.1	0.684	·
COC(=O)[C@@H]1C[C@H]2CC[C@H](O)C[C@H]2N1Cc1ccc(-c2ccccc2)cc1	-3.9	·	i	11.2	-1.7	-1.4	1.1	·	·
COc1ccc(-n2c(=O)c3ccccc3n(CC(=O)NC3CCCCC3)c2=O)cc1OC	-20.0	6.5	i	0.3	10.8	9.1	1.2	0.681	0.9%
Cc1ccc(S(=O)(=O)NC(=O)C2(C)CCN2C(=O)Cc2ccc(-c3ccccc3)cc2)cc1 (configuration not stated)	-2.1	·	i	-5.2	-33.6*	-27.1*	-6.2*	·	·
CC(O)CSc1nc2c(c(=O)n(C)c(=O)n2C)n1CCCc1ccccc1 (configuration not stated)	0.2	-14.7	i	1.7	-13.7	-4.6	-1.4	0.739	·
Cc1ccc2nc(/C(C#N)=C\c3cc(O)ccc3[N+](=O)[O-])[nH]c2c1	-0.4	97.9*	i	-5.5	-28.8	-27.7	-5.1	0.69	·
CCC1CCCCN1CCCNC(=O)c1ccc2c(c1)c(C)c(C)n2CC (configuration not stated)	15.8	8.4	i	2.0	11.0	6.4	7.7	0.703	·
C=CCNc1cc(C)oc(=O)c1C(=O)CCC	-12.5	5.4	i	-4.5	-2.2	-1.6	-13.2	0.683	0.9%
CC(=O)/C(C#N)=C1\NC(=O)C(Cc2ccccc2Cl)S1 (configuration not stated)	·	10.7	·	-0.8	·	·	·	0.73	0.3%
Cc1csc(NC(=O)C2CCCN(S(=O)(=O)c3cccnc3)C2)n1 (configuration not stated)	-0.5	·	i	2.7	-5.3	-14.7	0.6	0.709	0.4%
CN1CCN(C(=O)C[C@H]2C[C@H]3c4cc(NC(=O)C5CCOCC5)ccc4O[C@H]3[C@H](CO)O2)CC1	1.0	·	i	·	2.2	0.0	-3.6	·	·
COc1ccc(OCC(O)CNC(=O)Nc2ccccc2)cc1 (configuration not stated)	0.1	-0.4	i	3.2	-2.6	11.3	5.4	0.632	·
CCNC(=O)C(=O)N/N=C/c1cc([N+](=O)[O-])ccc1O	-0.8	-3.6	i	-0.9	·	·	·	·	16.2%
